Bioassay records: PubChem BioAssay, National Center for Advancing Translational Sciences (NCATS)
15-hLO-2 inh: inhibitors of human 15-lipoxygenase 2 (ALOX15B) | O15296 | purified 15hLO-2, xylenol orange hydroperoxide absorbance | Potency, µM (titrated, usually from 57.1 µM), inactives show at the top dose activity change, negative = inhibition, most hits filed as inhibitors | 110,000 tested, 0.56% active; active means well fitted inhibition curve with a large enough effect; further: potency means the concentration at half of the fitted maximal effect; nearly all actives have a fitted effect of over 60% in size; many of its hits are not listed in these tables
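Purified human 15hLO-2 (50 nM) preincubated 15 min with compound, then 45 uM arachidonic acid for 90 min at RT in 25 mM Hepes pH 7.5, 0.01% Triton X-100. Hydroperoxide detected by Fe-xylenol orange; 573/405 nm absorbance ratio.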
IMPase inh: IMPase inhibition in cells; CHO-M1 cells, IP1 accumulation, HTRF TR-FRET ratio; 120,000 tested, under 10 active; P97697; AID 901; inhibition (IP1 accumulation), % at 46.1 µM; active means well fitted curve in the direction sought with a large enough effect in the signal ratio, not every such curve was filed as active; the % refers to the signal ratio;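 further: cells stimulated with carbachol in lithium chloride buffer; plate controls were DMSO basal wells for no effect and reference inhibitor wells for full effect; higher means more IMPase inhibition seen as more IP1 and lower FRET ratio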
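Cellular IMPase inhibition is scored as a rise in cytosolic IP1, detected by competitive TR-FRET between d2-labelled IP1 and a europium anti-IP1 antibody. M1-expressing CHO cells were stimulated with carbachol for 30 min at 37C, with lithium (50 mM LiCl) present in the buffer.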
The depositor's hits bear a star; x = no result given; [ ] = another dose, or the depositor's remark. Unless noted, on the % scale 0 is the no-effect control and ±100 the full control effect.

nr	15-hLO-2 inh	IMPase inh	Structure
1	2%	1[20.6 µM]	Nc1ccc(S(=O)(=O)Nc2ncccn2)cc1
2	-2%	14	C/C(=C1/SC(N2CCCC2)=NC1=O)c1ccc(Br)cc1
3	-8%	0	O=S(=O)(c1ccc(Cl)cc1)n1nnc2ccccc21
4	-3%	7	COn1c(SCc2ccc(Cl)cc2)nc2ccccc2c1=O
5	-7%	8	CC(=O)N(C)/C=C1\Sc2ccccc2C1=O
6	-14%	x	Cc1ccc(CNC(=O)[C@H]2C[C@@H]2[C@H](NP(=O)(c2ccccc2)c2ccccc2)c2ccccc2)o1
7	10%	2	O=C(NC1CCCCC1)C(c1ccc(F)cc1)N(C(=O)Cc1ccsc1)c1ccc(F)cc1 (stereo unspecified)
8	3%	-2	O=C(COc1ccc(Cl)cc1Cl)Nc1noc2ccccc12
9	1%	9	CC(C)CNc1ncnc2c1sc1nc(N3CCOCC3)c3c(c12)CC(C)(C)OC3
10	-5%	-2	CCCNC(=O)Cn1cnc2sc(C(=O)NCCN(CC)CC)c(C)c2c1=O
11	0%	0	C=CCNC(=S)NNC(=O)c1ccc2c(c1)OCO2
12	8%	5	CC1CCN(CCCNC(=O)c2n[nH]c(=O)c3ccccc23)CC1
13	-10%	x	Cc1ccc(CNC(=O)[C@@H]2C[C@H]2[C@@H](NP(=O)(c2ccccc2)c2ccccc2)c2ccccc2)o1
14	-10%	-1	Cc1nc(=O)c(-c2ccccc2)c(C)n1-c1ccc(O)c(C(=O)O)c1
15	14%	14	COc1ccc(CCNc2nc(-c3ccco3)cc(C(F)(F)F)n2)cc1OC
16	4%	1	CN(CCC#N)CC(=O)Nc1ccc(NC(=O)CN(C)CCC#N)cc1
17	28%	17	Cc1ccccc1C(=O)N/C(=C/c1ccc(-c2cccnc2Cl)o1)C(=O)NCCCN1CCN(C)CC1
18	-10%	2	CCN(CC)c1ccc2cc(C(C)=O)c(=O)oc2c1

Record cards (already shown). Values in the order: 15-hLO-2 inh | IMPase inh
Results for Cc1ccccc1C(=O)N/C(=C/c1ccc(-c2cccnc2Cl)o1)C(=O)NCCCN1CCN(C)CC1 → 28% | 17
Results for Cc1nc(=O)c(-c2ccccc2)c(C)n1-c1ccc(O)c(C(=O)O)c1 → -10% | -1
Results for Cc1ccc(CNC(=O)[C@@H]2C[C@H]2[C@@H](NP(=O)(c2ccccc2)c2ccccc2)c2ccccc2)o1 → -10% | x
Results for COc1ccc(CCNc2nc(-c3ccco3)cc(C(F)(F)F)n2)cc1OC → 14% | 14

3 compounds out of the list above, ordered by the value under IMPase inh, rising.
cpd | mol | 15-hLO-2 inh | IMPase inh
10 | CCCNC(=O)Cn1cnc2sc(C(=O)NCCN(CC)CC)c(C)c2c1=O | -5% | -2
5 | CC(=O)N(C)/C=C1\Sc2ccccc2C1=O | -7% | 8
9 | CC(C)CNc1ncnc2c1sc1nc(N3CCOCC3)c3c(c12)CC(C)(C)OC3 | 1% | 9

Entries shown so far that contain fluorine:
nr	15-hLO-2 inh	IMPase inh	Structure
7	10%	2	O=C(NC1CCCCC1)C(c1ccc(F)cc1)N(C(=O)Cc1ccsc1)c1ccc(F)cc1 (stereo unspecified)
15	14%	14	COc1ccc(CCNc2nc(-c3ccco3)cc(C(F)(F)F)n2)cc1OC

Laid out differently: 2 of the compounds above
Sequence of screens – 15-hLO-2 inh	IMPase inh
4. COn1c(SCc2ccc(Cl)cc2)nc2ccccc2c1=O
  -3%	7
5. CC(=O)N(C)/C=C1\Sc2ccccc2C1=O
  -7%	8

This is a subset, and most or all hits are left out here.
